RecA intein inh – blocks M. tuberculosis RecA intein splicing; P9WHJ3; cell-free RecA intein splicing, fluorescence; inhibition, %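 (about 9 µM by stock and volumes)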; actives 0.75% (n = 290,000); in the data active means inhibition above about 30%; inconclusive means no clear call, values can overlap the other calls;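 further: 0% = vehicle wells and 100% = reference inhibitor control wells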
Target sequence (P9WHJ3 whole entry, looked up): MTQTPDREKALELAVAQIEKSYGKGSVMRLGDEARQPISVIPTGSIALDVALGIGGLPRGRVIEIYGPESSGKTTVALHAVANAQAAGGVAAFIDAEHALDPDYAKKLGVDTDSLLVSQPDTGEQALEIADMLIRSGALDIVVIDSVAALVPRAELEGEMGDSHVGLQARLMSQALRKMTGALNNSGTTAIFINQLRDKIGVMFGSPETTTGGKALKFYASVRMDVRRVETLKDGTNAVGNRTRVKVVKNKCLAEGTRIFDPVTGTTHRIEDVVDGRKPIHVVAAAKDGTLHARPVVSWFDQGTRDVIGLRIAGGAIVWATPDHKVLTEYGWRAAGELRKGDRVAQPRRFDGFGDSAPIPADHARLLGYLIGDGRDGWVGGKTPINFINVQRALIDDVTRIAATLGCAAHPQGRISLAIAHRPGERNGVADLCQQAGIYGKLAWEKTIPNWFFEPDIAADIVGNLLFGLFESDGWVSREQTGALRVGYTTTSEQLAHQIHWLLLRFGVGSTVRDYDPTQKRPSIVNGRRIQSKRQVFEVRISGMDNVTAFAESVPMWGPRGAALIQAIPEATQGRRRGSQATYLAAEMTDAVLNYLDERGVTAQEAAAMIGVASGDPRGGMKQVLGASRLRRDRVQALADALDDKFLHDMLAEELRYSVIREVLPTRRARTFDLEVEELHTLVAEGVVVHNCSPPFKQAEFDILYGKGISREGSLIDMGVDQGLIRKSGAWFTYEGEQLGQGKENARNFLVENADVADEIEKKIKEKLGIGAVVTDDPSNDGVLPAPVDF
Mtb betalactam – beta-lactam sensitization of Mtb H37Rv | M. tuberculosis H37Rv growth with meropenem, percent inhibition; hits of this screen are not shown here | AID 434955 | actives 0.27% (n = 330,000) | inhibition, % at 25 µM;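 active means about 74% or more and at least 40 points above the plate without the antibiotic, then above 30% in a dose series; inconclusive means first-round hits that could not be retested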;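 further: growth measured after seven days incubation then overnight dye step; 0% = bacteria only wells and 100% = bacteria with antibiotic; twin plates without the antibiotic show which effects depend on it; some results filed as inactive read as strong as hits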
Mtb growth – M. tuberculosis H37Rv growth inhibitors, H37Rv strain (AID 1626); inhibition, % at 10 µM, or IC50 in µM where a hit was titrated; M. tuberculosis H37Rv growth inhibition; higher % means a stronger effect; actives 0.95% (n = 220,000);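 active means confirmed in a dose series; inconclusive means inhibition above 80% but not taken into the dose series; inactive means below 80% or under 30% at every dose of the series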;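 further: bacteria incubated seven days before Alamar blue readout; 0% = bacteria only wells and 100% = bacteria with antibiotic wells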
Arbovirus anti – blocks arbovirus infection. arbovirus infection cell-based antiviral screen. inhibition, % at 10 µM. actives 0.37% (n = 200,000);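 active means inhibition from about 30%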;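 further: bluetongue infection of BSR cells; cell survival read as ATP light after 72 h; 0% = infected wells without compound and 100% = uninfected wells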
YopH PTP inh – YopH (Yersinia) phosphatase inhibition; fluorescence Ex485/Em525; inhibition, %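 (about 10 µM by stock and volumes)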; actives 0.16% (n = 140,000); AID 898;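 active means inhibition of 50% or more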;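 further: controls were vehicle for no effect and minimum signal wells for full effect; inactives centre near -20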
Arbovirus anti repeat – recorded beside Arbovirus anti, whose call it bears; inhibition, %; measured here: 10K subset replicate screen; many hits read low in the repeat;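 first of two repeat runs on a subset; 0% = infected and 100% = uninfected wells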
An asterisk follows results filed as active; i = inactive; ? = inconclusive; nt = not tested or not shown; & = joins results of further samples.

SMILES	RecA intein inh	Mtb betalactam	Mtb growth	Arbovirus anti	YopH PTP inh	others
O=C1NCCCC1C(=O)N/N=C/c1cc([N+](=O)[O-])ccc1O (stereo not given)	1.7	2	nt	nt	nt
C/C=C\C=C/C(=O)Nc1cccc(C2=NOC3(C2)C[C@@H](C(N)=O)N(C(=O)c2ccc(Cl)cc2)C3)c1 (stereo not given in full)	1.5	3	9%	nt	nt
COc1ccc(/C=N/N2C(C)CCCC2C)cc1O (stereo not given)	-0.1	1	nt	nt	nt
CN1CCN(c2ccc([N+](=O)[O-])cc2C(=O)Nc2ccccc2)CC1	7.3	4	9%	-1	nt
O=c1c2ccccc2nc(/C=C/c2ccccc2)n1-c1ccc(O)cc1	1.5	100	nt	nt	nt
CC(OC(=O)c1nn(C)c(=O)c2ccccc12)C(=O)Nc1ccc(S(N)(=O)=O)cc1 (stereo not given)	-2.5	-5	nt	nt	nt
O=C(O)C1CCN(S(=O)(=O)Cc2ccccc2)CC1	-0.2	?	nt	nt	nt
NC(=O)COC(=O)c1ccc2c(c1)S(=O)(=O)N=C1CCCCCN12	-0.8	-4	-3%	-3	-14
CC(CCN1CCN(CCO)CC1)c1ccccc1 (stereo not given)	-3.4	-7	nt	nt	nt
CCOC(=O)c1cnc(SCC(=O)Nc2sc(C)c(C)c2C#N)nc1N	-0.9	3	1%	-33	-45
Cc1oc2cc3oc(=O)c(CCC(=O)N4C[C@H]5C[C@@H](C4)c4cccc(=O)n4C5)c(C)c3cc2c1C	4.2	-4	nt	nt	nt
O=C(CCN1C(=O)/C(=C/c2ccc(Cl)cc2)SC1=S)Nc1ccc(C(=O)O)cc1	7.8	1	nt	nt	nt
COc1ccccc1CCN1CCCC(CN(C)C(=O)c2ccco2)C1 (stereo not given)	1.9	3	nt	nt	nt
CC(/C=C/c1ccccc1)=N\Nc1nc(-c2ccccc2)cs1	-1.2	98	6%	8	-26
Cc1cc(C)c(C(=O)N2CCCC(CNC(=O)C3(c4ccc(Cl)cc4)CC3)C2)c(=O)[nH]1 (stereo not given)	1.6	-3	-3%	-1	nt
CCN(CC)CCN(CC(=O)Nc1c(C)cc(C)cc1C)C(=O)c1ccccc1	-1.1	1	nt	nt	nt
COc1ccc(C(C)(C)C)cc1NC(=O)c1cccc(S(=O)(=O)N2CCN(C(C)=O)CC2)c1	1.6	6	nt	nt	nt
CCN(CC)CCOC(=O)c1ccc(NC(=O)CCCN2C(=O)/C(=C/c3cccs3)SC2=S)cc1	5.4	69	nt	nt	nt
CCOc1ccc(N(CC(=O)NC2CCCCC2)S(=O)(=O)c2ccc(C)cc2)cc1	-0.8	-6	nt	nt	nt
O=C(O)c1ccc(CS(=O)(=O)c2c(Cl)cccc2Cl)o1	-0.9	4	nt	nt	nt
COCCNC(=O)c1c[nH]c2ccc(OC)cc2c1=O	-1.8	1	-7%	1	-52
COc1ccc(OC)c(NC(=O)c2ccc(-c3csc(C)n3)cc2)c1	3.4	87	nt	nt	nt
CC(C)Nc1nnc(SCC(=O)c2c(N)n(Cc3ccccc3)c(=O)n(C)c2=O)s1	0.1	-7	-6%	5	-10
O=C(CSc1ccc(-c2ccccc2)nn1)N1CCCCC1	0.5	-12	3%	-4	nt
O=C(Nc1nnc(SCc2ccccc2Cl)s1)C1COc2ccccc2O1 (stereo not given)	1.1	6	-3%	41*	5
O=C(COc1ccccc1Cl)Nc1nc(-c2cccs2)cs1	11	-2	17%	5	17
COC(=O)c1cn(C(=O)c2cccc(Br)c2)c2ccccc12	2.4	4	nt	nt	nt
CCCc1nc2c(ccc3ccccc32)cc1CC	6.3	?	nt	nt	nt
O=C1NC(c2cc(Cl)cc([N+](=O)[O-])c2O)Nc2ccccc21 (stereo not given)	-0.8	-1	0%	nt	nt
COc1ccc(-c2cc(=O)oc3c(C)c(OC(C)C(=O)N4C[C@H]5C[C@@H](C4)c4cccc(=O)n4C5)ccc23)cc1 (stereo not given in full)	1.5	65	nt	nt	nt
OCCOc1nnnn1-c1ccccc1	0.5	-6	-14%	4	-15
Cc1[nH]n(-c2ccccc2)c(=O)c1C(c1ccccc1[N+](=O)[O-])C(C#N)C#N (stereo not given)	64*	-5	nt	nt	nt
Cc1ccc(O)c(C2=NOC(O)(C(F)(F)C(F)F)C2)c1 (stereo not given)	-7.4	10	4%	6	-47	Arbovirus anti repeat=-4
CN(C)c1ccc(NC(=O)CN2CCC(NC(=O)C3CCCCC3)CC2)cc1	-0.1	-5	nt	nt	nt
COc1ccccc1CC(NC(C)=O)C(=O)NC1CCN(c2nnnn2-c2ccccc2)CC1 (stereo not given)	nt	-9	-2%	8	21
COc1ccc(NC(=O)CN(C)C(=O)CNC(=O)c2ccc(C)s2)cc1	-3.7	-3	nt	nt	nt
Cc1ccc(C(=O)COC(=O)CCC(=O)Nc2ccccc2Cl)cc1[N+](=O)[O-]	-0.5	-1	-5%	1	-19
Cc1nn(C(=O)c2cccs2)c(N)c1-c1ccccc1	13	1	-3%	2	-30	Arbovirus anti repeat=-3
CC(C)NC(=O)c1ccc(N2CCOCC2)nc1	0.1	-4	0%	0	0
COc1ccc(-c2nc3ccc(C)cc3c(=O)o2)cc1OC	-1.4	92	nt	nt	nt
CC1=CC(=C(C#N)C#N)C=C(C)N1CCC(C)C	-3.8	-1	2%	6	nt
COc1ccccc1-c1cc(C(=O)NCc2cccs2)no1	-0.3	-4	-4%	0	-22
COc1ccccc1S(=O)(=O)Cc1ccc(C(=O)NCCN2CCCC2)o1	-2.4	7	-8%	2	-40
COC(=O)c1ccc(S(=O)(=O)N2CCCCC2)o1	3.5	-23	-5%	1	-10
Cc1nn(Cc2c(F)cccc2Cl)c(=O)c2ccccc12	2.3	8	nt	nt	nt
COc1ccc(-c2nc(-c3ccccn3)ncc2S(C)(=O)=O)cc1	-2.6	-2	-5%	9	nt
COc1ccccc1NS(=O)(=O)c1cccc(NC(=O)c2ccc3ccccc3n2)c1	-0.1	-2	10%	24	-28
COc1ccc(/C=C2\CCC(C3CCCC3)C2=O)cc1Cn1cccn1 (stereo not given)	-9.7	1	3%	-9	-7
CC(C)c1ccc(NC(=O)CSc2nnc(-c3ccccn3)n2C)cc1	-3.4	-2	nt	6	-47
N#CC(=C1Nc2ccccc2N1)S(=O)(=O)c1ccccc1	4.8	-4	0%	-7	nt
Next section
SMILES	RecA intein inh	Mtb betalactam	Mtb growth	Arbovirus anti	YopH PTP inh	others
O=c1cc(C(F)(F)F)nc(-c2ccccc2)[nH]1	3.9	-12	-3%	8	-46
CN1CCN(C(=O)C2(NC(=O)Nc3ccccc3Cl)CCCCC2)CC1	-0.6	-6	0%	7	-10
CC1(C)N=C(C(=O)c2ccccc2)N(O)C1(C)O (stereo not given)	-2.8	6	-3%	3	-39
Fc1ccc(C(OCCN2CCCC2)c2ccc(Br)cc2)cc1 (stereo not given)	0.1	-4	11%	-39	-23
CC(C)COc1ccc(S(=O)(=O)n2cc(F)c(=O)[nH]c2=O)cc1	-1.7	12	16%	8	nt
CN(C)/C=C1\C=C2C(=O)c3ccccc3N2C1=O	i	-7	-6%	nt	nt
CCOC(=O)c1ccc(NC(=O)CCc2ccc(CC)o2)cc1	2.7	94	2.3µM*	2	-5
COc1cc(NC(=O)c2cnn3c(C)cc(C)nc23)c(OC)cc1Cl	-0.9	nt	10%	2	7
O=C(CSC(=S)N1CCOCC1)c1cc(Br)cc(Br)c1O	-3.1	7	nt	nt	nt
Cc1ccc(CN(c2ccc(C(=O)N3CCOCC3)cc2)S(C)(=O)=O)cc1	-2.2	-12	4%	13	-29
CC(C)[C@H](NC(=O)[C@H](CC(=O)O)NC(=O)[C@H](CCCCN)NC(=O)[C@@H](N)CCCN=C(N)N)C(=O)N[C@@H](Cc1ccc(O)cc1)C(=O)O	2.2	-8	nt	7	-33
Cc1cc(=O)oc2cc(OCC(=O)OCC(=O)N(CCC#N)c3ccccc3)ccc12	0.6	10	1%	8	nt
CC(=O)c1nc2ccccc2n1CCc1ccccc1	-4.0	-3	2%	-3	nt
O=S(=O)(c1ccc(-c2ccon2)s1)N1CCN(c2ccncc2)CC1	-3.9	-6	8%	nt	nt
Cc1[nH]n(-c2ccccc2)c(=O)c1CCOC(=O)c1ccc(C(F)(F)F)cc1	-1.1	-8	-11%	13	-19
CC1(C)C2CCC(C2)C1(C)NC(=O)CN1CCOCC1 (stereo not given)	nt	-2	8%	10	-6
CCOC(=O)c1ccc(-n2c(CN3CCOCC3)nc3ccc([N+](=O)[O-])cc3c2=O)cc1	-3.0	-6	69%	1	nt
Oc1ccc2ccccc2c1CN1CCOCC1	-9.5	1	nt	nt	nt
Cc1ccc(-n2ncc3c2CC(C)(C)CC3NC(=O)CCN2CCCO2)cc1 (stereo not given)	0.1	-1	nt	nt	nt
CCC1CC2CC(NC(C)=O)C1C2 (stereo not given)	0.4	-4	1%	8	3
Cc1nn(Cc2ccc(F)cc2)c(C)c1NC(=O)CCCn1nc([N+](=O)[O-])cc1C	0.3	-8	2%	7	nt
CSCCC(NC(=O)c1ccccc1Cl)C(=O)Nc1ccc(C)c(S(=O)(=O)N2CCOCC2)c1 (stereo not given)	-2.6	-8	nt	nt	nt
COC(=O)CN1C(=S)N(c2ccc(OC)cc2)C(=O)/C1=C/c1ccc(N2CCOCC2)cc1	2.1	-2	12%	-3	nt
COc1ccc(CCNC(=O)C2CCN(S(=O)(=O)c3cccc4nsnc34)CC2)cc1OC	2.9	-4	-3%	3	-14
NS(=O)(=O)c1ccc(CNC(=O)c2cccc(Oc3ccccc3)c2)cc1	2.2	-1	nt	nt	nt
CC(C)CNC(=O)NC(=O)COC(=O)Cn1cnc2ccccc2c1=O	-1.3	1	-6%	0	nt
CN1CCN(CCCN2c3ccccc3Sc3ccc(C(F)(F)F)cc32)CC1	2.9	99	?	-44&-22	-4
O=C1CCCC2=C1C(c1ccc(O)c(Br)c1)C1=C(CCCC1=O)N2c1ccccc1	-1.9	-4	-1%	3	nt
CC(N=C1NS(=O)(=O)c2ccccc21)c1ccccc1 (stereo not given)	-3.0	5	-5%	-3	-3	Arbovirus anti repeat=1
Cc1cc(N)n(-c2ccc(S(N)(=O)=O)cc2[N+](=O)[O-])n1	0.4	1	6%	4	nt
CCC1(C)NC(=O)N(CC(=O)N2N=C(c3ccccc3)CC2c2ccc(OC)cc2)C1=O (stereo not given)	3.0	1	2%	8	-67
COc1ccc(C(=O)N2CCN(c3ccccc3)CC2)cc1S(=O)(=O)N1CCOCC1	0.5	-2	nt	nt	nt
CC(C)N(C(=O)Cn1c(-c2ccccc2Cl)nc2ccccc21)c1ccccc1	7.9	5	7%	2	-9
Cc1c(NC(=O)OC(C)C)sc(=S)n1C	-1.9	2	-5%	-6	1
O=c1[nH]n(-c2ccccc2Cl)c(=O)c2ccccc12	-0.9	-5	nt	nt	nt
COCCC(=O)N1CCC(Oc2ccc(C(=O)NCCC3=CCCCC3)cc2)CC1	-0.9	-2	nt	nt	nt
CCSC1=N/C(=C\c2ccc(-c3ccccc3[N+](=O)[O-])o2)C(=O)S1	-6.5	77	13%	7	-3
COc1ccc(OCc2cc(C(=O)N3CCN(CC4CC4)CC3)no2)c(Cl)c1	2.0	-2	nt	nt	nt
COc1cc(/C=N/N=C2/NC(=O)C(Cc3ccccc3)S2)ccc1O (stereo not given)	-1.1	-5	2%	6	nt
C=CCn1c(SC(CCO)C(=O)NCc2ccco2)nc2sc3c(c2c1=O)CCC3 (stereo not given)	0.8	-21	-4%	3	-25	Arbovirus anti repeat=-1

Part of the list above in order of formula weight, rising:
SMILES	RecA intein inh	Mtb betalactam	Mtb growth	Arbovirus anti	YopH PTP inh	others
CC(C)N(C(=O)Cn1c(-c2ccccc2Cl)nc2ccccc21)c1ccccc1	7.9	5	7%	2	-9
COCCC(=O)N1CCC(Oc2ccc(C(=O)NCCC3=CCCCC3)cc2)CC1	-0.9	-2	nt	nt	nt
COc1ccc(C(=O)N2CCN(c3ccccc3)CC2)cc1S(=O)(=O)N1CCOCC1	0.5	-2	nt	nt	nt

Further records
SMILES	RecA intein inh	Mtb betalactam	Mtb growth	Arbovirus anti	YopH PTP inh	others
CC(=O)Cn1ncc(N2CCCCC2)c(Cl)c1=O	-0.6	5	-1%	2	nt
Cn1nc(C(C)(C)C)c(NC(=O)c2ccc(F)cc2)c1C(C)(C)C	-1.2	7	-4%	nt	nt
CCC(C)c1ccc(NC(=S)NCc2ccccn2)cc1 (stereo not given)	7.9	33	16%	18	nt
CC1CN(C(=O)c2cc3c(=O)n4ccccc4nc3n2C)CC(C)O1 (stereo not given)	-235	4	nt	nt	nt
CC(Oc1ccc(Cl)cc1)C(=O)N(C)CC(=O)Nc1ccc(N2CCOCC2)cc1 (stereo not given)	2.3	-7	nt	nt	nt
CC(C)Oc1ccc(C(=O)NNC(=O)c2ccccc2C(=O)O)cc1	-1.5	-1	-7%	-9	-15
COc1ccc(NC(=O)NC2CCCCCCC2)cc1OC	-1.6	14	nt	nt	nt

This is a subset (hit frequency here may not be typical).
